NPYLR7 ag = mosquito NPYLR7 agonism | HEK293T NPYLR7/Galpha15, GCaMP6s calcium fluorescence | activation, % at 10 µM | 270,000 tested, 0.15% active; in the data active means activation above about 40%;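 further: 0% = vehicle and 100% = reference agonist at the receptor; some compounds past the cut are filed as inactive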
NPYLR7 ag max-min = also measured in NPYLR7 ag; calls as there; activation, %; measured here: Max-Min RFU normalised activation; some inactives read as strong as hits;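 span of the calcium signal over five minutes; 0% = vehicle and 100% = native peptide agonist; compound fluorescence can raise it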
Numbers without * were called inactive; & = joins results of further samples. Some of the compounds tested. The share of hits here may be higher or lower than overall.

SMILES	NPYLR7 ag	NPYLR7 ag max-min
Fc1ccc(C2c3[nH]c4ccccc4c3CCN2Cc2ccco2)cc1 (stereo not drawn)	-3.4	-2.2
CCOC(=O)C1=C(C)N=c2s/c(=C/c3ccc(OC(C)=O)c(OC)c3)c(=O)n2C1c1ccc(OC(C)=O)cc1 (stereo not drawn)	-4.0	-9.8
CCOC(=O)c1ccc(OC2CC3CCC(C2)N3C(=O)c2ccc(CSc3nnc(SC)s3)cc2)cc1 (stereo not drawn)	16.5	9.3
Cn1cc(CC(=O)NCCOc2cccc3cccnc23)c2ccccc21	0.5	-0.6
COc1cc2c(cc1OC)C(c1ccccc1Cl)N(C(=O)Nc1ccc3c(c1)OCO3)CC2 (stereo not drawn)	-1.4	8.9
CCOC(=O)C1(C/C=C/c2ccccc2)CCCN(Cc2cn(CC)nc2C)C1 (stereo not drawn)	0.2	-1.0
O=C(NCC1CCOCC1)c1cccc(OC2CCN(C(=O)C3CC3)CC2)c1	10.4	4.6
CCCc1nc(N2CCN(C(=O)Nc3ccc(OC)cc3)CC2)c2c(-c3ccccc3)noc2n1	-0.3	-1.2
CCc1cn[nH]c1C1CCN(C2CCN(Cc3ccccc3)CC2)CC1	10.6	-3.0
Cc1cc(NC(=O)COc2c(C)cccc2C)nc(C(C)C)n1	5.1	2.0
CCn1cc(NC(=O)Nc2ccc(N(C)C)cc2)c2ccccc21	11.2	2.8
COc1cccc(C(=O)N2CCN(c3nc(-c4ccc(C)cc4)nc(C)c3C(C)C)CC2)c1	10.5	19.1
CN(CCCNCC1CC2C=CC1C2)c1ccccc1 (stereo not drawn)	9.0	8.4
O=C(c1cccc(F)c1)N(Cc1nccn1Cc1ccccc1C(F)(F)F)C1CC1	15.8	22.4
N#Cc1cc(F)ccc1NC(=O)N(Cc1cccnc1)C1CC1	-0.7	-2.1
CCS(=O)CCc1nc(C2CC2)nn1-c1nccc2ccccc12 (stereo not drawn)	0.5	1.6
Cc1cc(=O)[nH]c(CNC(=O)C2(N(C)Cc3ccccc3)Cc3ccccc3C2)n1	-3.1	-13.1
COc1cc(=O)[nH]c(SC(C)C(=O)N(c2ccccc2)c2ccccc2)n1 (stereo not drawn)	-2.4	-6.4
Cc1ccc(C(=O)NCC2CCN(C)C2)cc1-n1cccc1 (stereo not drawn)	6.1	4.9
CC(C)(C)CNC(=O)c1cn(-c2ccc(C(F)(F)F)cn2)nn1	11.3	2.7
N#Cc1ccsc1NC(=O)CSc1nnc(-c2cccs2)n1C1CC1	-0.5	1.5
Cc1cc(Sc2nnc(C(F)(F)F)n2C)nc(C)n1	4.2	3.4
NC(=O)c1cccc2c1CCCN2Cc1ccc(Cl)cc1Cl	5.4	1.2
O=S(=O)(c1ccc(F)c(F)c1)N1CCN(c2c(-c3ccccc3)cnc3ncnn23)CC1	-6.1	1.4
CCC(Cc1ccc(C)cc1)N(C)C(=O)COC (stereo not drawn)	-0.8	-6.2

Continued; it opens with the 7 that closed the last part.
SMILES	NPYLR7 ag	NPYLR7 ag max-min
Cc1ccc(C(=O)NCC2CCN(C)C2)cc1-n1cccc1 (stereo not drawn)	6.1	4.9
CC(C)(C)CNC(=O)c1cn(-c2ccc(C(F)(F)F)cn2)nn1	11.3	2.7
N#Cc1ccsc1NC(=O)CSc1nnc(-c2cccs2)n1C1CC1	-0.5	1.5
Cc1cc(Sc2nnc(C(F)(F)F)n2C)nc(C)n1	4.2	3.4
NC(=O)c1cccc2c1CCCN2Cc1ccc(Cl)cc1Cl	5.4	1.2
O=S(=O)(c1ccc(F)c(F)c1)N1CCN(c2c(-c3ccccc3)cnc3ncnn23)CC1	-6.1	1.4
CCC(Cc1ccc(C)cc1)N(C)C(=O)COC (stereo not drawn)	-0.8	-6.2
CCCCN(Cc1cccn1Cc1ccc(Br)cc1)C(=O)CN(CCCOC)C(=O)c1ccco1	-3.4	-6.1
Cc1ccc(CC2CC(=O)N(C3CCCCC3)C2=O)cc1 (stereo not drawn)	-15.6	-23.5
COc1cc(OC)cc(C(=O)N2CCN(c3ccccn3)CC2)c1	9.3	7.2
Fc1ccc(CSc2ncccn2)cc1	-1.9	5.0
Cc1nn(C)c(C)c1S(=O)(=O)NC(c1cccs1)C(C)(C)C (stereo not drawn)	9.3	7.0
O=C(CN1Cc2ccccc2OC(c2ccccc2F)C1)NCCc1ccccn1 (stereo not drawn)	6.7	-0.4
O=C1Cc2ccccc2N1	-1.2	-1.4
CCCC12CN3CC(CCC)(CN(C1)C3c1c[nH]c3ccccc13)C2=O (stereo not drawn)	0.6	39.1
COC(=O)c1cc(Br)ccc1S(=O)(=O)Nc1ccc(F)cc1Cl	9.7	11.4
NC(=O)C1CC(C(=O)Nc2ccc3c(c2)OCCO3)=NN1c1ccccc1 (stereo not drawn)	4.2	1.3
Cc1nc(C(NC(=O)c2cccc(Cl)n2)c2ccccc2)n[nH]1 (stereo not drawn)	5.4	6.3
CCOc1ccccc1C=C1N=C(c2ccc(OC)c(OC)c2)OC1=O	3.2	-3.9
CCOC(=O)C1(C)CCCCN1C(=O)c1ccc(N(C)C)cc1 (stereo not drawn)	-2.3	-4.4
CCN1C(=O)NC(c2cccc(C#N)c2)C(C(=O)OC)=C1C (stereo not drawn)	-8.0	-8.7
CC(C)c1cc(C2CCCN2C(=O)CCc2cn3ccccc3n2)no1 (stereo not drawn)	9.3	3.9
CC(C(=O)O)S(=O)(=O)Cc1ccc(Br)cc1 (stereo not drawn)	0.0&2.1	-2.9&0.0
Cc1ccn2c(NC(=O)CC(C)(C)C)c(-c3cccc(F)c3)nc2c1	-9.8	-5.1
O=C(NCc1cccc(C(F)(F)F)c1)N1CCc2sccc2C1	2.5	3.6
O=C1CCN([C@@H]2CCC[C@H]2O)c2cc3c(cc2CN1C1CC1)OCO3	0.1	5.1
CCOc1ncccc1C(=O)N1CCNCC1C(=O)N1CCCC1 (stereo not drawn)	1.7	-3.6
Cn1cc(C(=O)N2CCOCC2)cc(NC(=O)c2ccccc2)c1=O	4.9	5.3
COCC(NC(=O)c1cccc2[nH]c(C)nc12)c1ccnn1C (stereo not drawn)	-5.8	-6.3
Cc1ccccc1-c1ccc(-n2cncc2C(=O)NC2CCCc3ccccc32)cc1 (stereo not drawn)	-1.8	-3.8
CC(NC(=O)Nc1nccs1)c1ccc(Cl)cc1 (stereo not drawn)	-0.2	-2.0
O=C(CCCN1C(=O)c2cccc3cccc(c23)C1=O)Nc1cc(C(F)(F)F)ccc1Cl	-13.9	-18.2

Some of these compounds in order of formula weight, ascending.
SMILES	NPYLR7 ag	NPYLR7 ag max-min
O=C1Cc2ccccc2N1	-1.2	-1.4
Fc1ccc(CSc2ncccn2)cc1	-1.9	5.0
O=C(CCCN1C(=O)c2cccc3cccc(c23)C1=O)Nc1cc(C(F)(F)F)ccc1Cl	-13.9	-18.2

New compounds follow:
SMILES	NPYLR7 ag	NPYLR7 ag max-min
Cc1c(C(=O)NCc2cccc(Cl)c2)sc(=O)n1Cc1ccc(C(=O)N(C)C)cc1	8.2	3.4
COc1ccsc1C(=O)n1nc(C2CC2)c(C)c1N	4.6&-0.7	1.7&0.2
COc1ccc(N2CCN(C(=O)C3CCCCC3C(=O)NC[C@@H]3CCCO3)CC2)cc1 (stereo partly drawn)	-4.5	-9.0
CCOC(=O)c1nn(-c2ccc(S(N)(=O)=O)cc2)c(=NC#N)s1	3.2	2.5
Cc1ccsc1CN(C)C(=O)CCN(C)S(C)(=O)=O	-2.6	-6.5
Cc1ccccc1C1CC(c2cccc(F)c2)=NN1C(=O)CN1CCN(c2ccccc2F)CC1 (stereo not drawn)	20.2	14.9
O[C@@H]1CNCC[C@H]1CNCc1ccccc1-c1ccccc1	-2.6	-12.1
O=C(NCc1nn[nH]n1)C1CCCN(C2CCN(CCc3ccccc3)CC2)C1 (stereo not drawn)	6.9	1.2
CC(=O)N1CCC(N2CCCC(CO)(CC(C)C)C2)CC1 (stereo not drawn)	-0.9	-2.7
CN(C)c1cc(C(=O)N(C)c2ccccc2)ncn1	-4.6	-8.7
Cc1nc(SCc2ccc(C(=O)O)cc2)nc(N(C)C2CCCCC2)c1C	9.8	16.7
CC(=O)c1cccc(OCC(=O)Nc2nnc(Cc3ccccc3)s2)c1	-2.4	-5.8
Cn1[nH]c(=O)c2c(C(=O)NC3CCCCNC3=O)cc(C3CC3)nc21 (stereo not drawn)	1.0	-1.3
CN(C(=O)c1coc(CN2CCN(Cc3ccccc3)CC2)n1)C1CCOC1 (stereo not drawn)	11.9	6.8
COc1cccc(COC2CCCN(C(=O)c3ccc(Cl)cc3Cl)C2)c1 (stereo not drawn)	-3.0	-0.7
Cc1ccnc(NCCNCC(=O)Nc2cnccn2)c1	26.5	17.4
C#Cc1cccc(C(=O)N2CCCC(N(C)CCc3ccc(OC)c(OC)c3)C2)c1 (stereo not drawn)	1.2	-3.3
Cc1ccc(C(=O)NCC(=O)Nc2nc3cc4c(cc3s2)OCCO4)s1	4.1	12.2
NS(=O)(=O)c1ccc(CNC2CC(=O)N(c3ccc(C(=O)O)cc3)C2=O)cc1 (stereo not drawn)	2.2	0.7
Cc1cc(NC(=O)NC2CC(=O)N(c3ccc4c(c3)OCCO4)C2)no1 (stereo not drawn)	-5.4	0.4
Cc1ccsc1C1(C(=O)N2C[C@@H]3[C@H](C2)[C@H]2CC[C@@H]3O2)CC1(C)C (stereo partly drawn)	7.8	2.9
CCCCCCOc1ccccc1-c1nc2ccccc2c(=O)n1C1CCCCC1	5.6	3.9
CSCCC(NC(N)=O)C(=O)N=c1sccn1C (stereo not drawn)	5.1	6.1
COC(=O)C(c1ccccc1F)C1C=CC(NC(=O)c2sc3ccccc3c2Cl)C1 (stereo not drawn)	0.8	-2.5
Cc1nc2cc(NC(=O)CC3(C(=O)O)CCCC3)ccc2o1	-3.4	-4.0

Next section.
SMILES	NPYLR7 ag	NPYLR7 ag max-min
COc1ccc(Cl)cc1CN1C(=O)C(C)Oc2ccc(F)cc21 (stereo not drawn)	-3.4	-4.5
Cn1cc(CN2CCCC2C(=O)Nc2ccc(-c3cccc(F)c3)cc2)cn1 (stereo not drawn)	-0.5	-6.5
Cc1nc(NCc2ccc(F)cc2)nc(N2CCOCC2)c1[N+](=O)[O-]	-0.5	-2.9
Cc1ccc(NC(=O)Cc2c(C)nn(C)c2C)c(OCC(F)(F)F)c1	-2.1	-4.7
CCOc1ccc2nc(N3CCCN(Cc4c(C)nn(CC)c4C)CC3)nc(C)c2c1	21.0	6.6
O=C(NCCCn1nc(-c2cccnc2)ccc1=O)c1ccc(Cl)cc1Cl	10.2	-0.3
O=C(Nc1ccc2c(c1)CCCN2Cc1ccccc1)C1=COCCO1	7.0&-1.1	3.7&-5.6
CC1(C)C(C#N)C(=O)NC(=S)C1C#N (stereo not drawn)	9.9	9.4
COCC(=O)Nc1nccn1Cc1ccc(Br)cc1	-23.5	-23.6
c1ccc(-c2ccc(C3=NN4COc5ccccc5C4C3)cc2)cc1 (stereo not drawn)	5.6	11.2
CC(=O)Oc1ccc(Cn2c(C)c(C(=O)N(C)Cc3ccc(F)cc3)sc2=O)cc1	-0.4	-1.4
O=C(NN=Cc1cccc([N+](=O)[O-])c1)c1cc(C23CC4CC(CC(C4)C2)C3)[nH]n1	4.6	5.1
COc1cccc(Cn2c(SCC(=O)Nc3ncn[nH]3)nc3ccsc3c2=O)c1	-10.6	-11.6
O=C(NCc1ccccn1)C1CC=CCC1C(=O)N1CCc2c([nH]c3ccccc23)C1 (stereo not drawn)	-6.4	-11.0
COc1ccc(/C=C(/C#N)c2nc(N3CCOCC3)n[nH]2)cc1	-2.3	-3.5
Cc1cccnc1NC(=O)C1CCN(C(=O)c2ccsc2)CC1	-1.1	-1.0
O=C(Oc1coc(CSc2ncccn2)cc1=O)c1ccc(S(=O)(=O)N2CCCC2)cc1	-24.8	-12.0
COc1ccc(-c2n[nH]c(=S)n2CC(=O)NC(C)(C)C)cc1	-5.2	-7.0
COc1cccc(C(=O)N2CCN(c3cc(Cl)nc(SCC(=O)NCCCN4CCCCC4C)n3)CC2C)c1 (stereo not drawn)	-1.2	5.0
COc1ccc(OC)c(-c2cccc(-c3cccc(NC(=O)c4c(F)c(F)c(F)c(F)c4F)c3)n2)c1	-8.7	-12.2
O=c1oc2c(Cl)cc(Cl)cc2cc1-c1nnc(Nc2ccccc2)s1	-6.3	-9.1
CCC(C)n1c(=S)[nH]c(=O)c2c(C(=O)OC)cc(-c3ccco3)nc21 (stereo not drawn)	-2.4	-6.5
CCc1nc2c(OCc3ccc(C(F)(F)F)cc3)cccn2c1N(C)C(C)=O	8.0	-4.0
CCOC(=O)C(C)Sc1nnc(NC(=O)COC)s1 (stereo not drawn)	-1.7	9.5
CC(C)c1nnc(NC(=O)C2CCCN(C(=O)c3ccccc3OC(F)F)C2)s1 (stereo not drawn)	0.6	0.9

Next section:
SMILES	NPYLR7 ag	NPYLR7 ag max-min
Cc1cccc(Cn2c(=O)c(C(=O)NCC3CCCO3)nn(-c3cccc(Cl)c3)c2=O)c1 (stereo not drawn)	4.2	8.2
CC(=O)N1CCc2cc(NC(=O)COC(=O)C3CC4CCC3C4)ccc21 (stereo not drawn)	5.6	4.0
CCc1nc2ccc(C(=O)NCc3ccc(OC)cc3)cn2c1N(C)Cc1nccn1C	-3.4	-7.3
O=C(Nc1ccccc1C(F)(F)F)N1CCc2nc(Cc3ccc(F)cc3)[nH]c(=O)c2C1	-3.9	-0.4
CCc1cccc(C)c1NC(=O)CO/N=C1\C(=O)Nc2ccc(OC)cc21	-0.7	10.8
CC(N)C12CC3CC(CC(C3)C1)C2 (stereo not drawn)	-1.4	-6.1
